# D2 potentiator: potentiates the human D2 dopamine receptor allosterically; P14416; DiscoveRx D2 beta-arrestin cells, luminescence, 90 min; 100% = 57 uM dopamine signal; potentiation, % (no concentration beside the values); 360,000 tested, 0.23% active; AID 624464; active = potentiation of 50% or more; inconclusive = 30% to 50%; inactive = 30% or less;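 note: compound concentration not given in the record; tested on top of an EC20 dose of dopamine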
#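 D2 cells co-treated with compound plus 50 nM dopamine (EC20) for 90 min at 37 deg C to detect potentiation. Beta-arrestin recruitment was read as enzyme-fragment luminescence after 1 h at ambient temperature. Full response was set by 57 uM dopamine.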
# Six1-Eya2 inh: blocks human Six1 binding to Eya2; activity change, % (concentration not given with the values); AID 651725; 360,000 tested, 0.56% active; AlphaScreen GST-Six1/His-Eya2 binding, biochemical; stronger effect = lower value; control for the full effect not named in the record; in the data active = activity change below about -65%; inconclusive = about -30% to -65%; inactive = above about -30%; note: % is set by controls: 0 for no effect and ±100 for the full control effect
#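 Compounds are tested against tagged Six1 and Eya2 proteins bridged by glutathione donor and nickel acceptor beads; after a one-hour incubation at 37 °C without light, AlphaScreen emission is recorded.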
# PINK1 expr mod: modulators of PINK1 expression | Potency, µM (doses to about 76.6 µM), for the others: top-dose activation (PINK1 increase), usual class: activators | 410,000 tested, 0.2% active | AID 624263 | PINK1 immunofluorescence, high-content cytometry, 24 h; active = well fitted activation curve with a large enough effect; inconclusive = small, poorly fitted or top-dose-only effect; inactive = flat fitted curve, though single readings scatter; cell line not stated here;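 note: potency is the fitted concentration of half-maximal effect; % of control where 0% means no effect; nearly all actives have a fitted effect of over 65% in size; a mitochondrial uncoupler was the plate control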
#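 Cells are seeded, rested 12 hours, then given compound at five concentrations or DMSO for 24 hours. After fixation, blocking and antibody staining, PINK1 amount and mitochondrial localization are scored; CCCP serves as control.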
# CtBP-E1A blk: inhibitors of CtBP/E1A interaction; AlphaScreen GST-E1A/His-CtBP binding, 1536-well; stronger effect = lower value; control for the full effect not named in the record; activity change, % (test concentration not listed); 340,000 tested, 0.49% active; AID 651724; in the data active means activity change below about -65%; inconclusive means about -30% to -65%; inactive means above about -30%; note: % is set by controls: 0 for no effect and ±100 for the full control effect; compound concentration not given in the record
#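 Homogeneous bead-based format: GST-tagged E1A captured on glutathione donor beads, His-tagged CtBP on nickel acceptor beads; compounds precede bead addition by 2 h at 37 °C.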
# TRPV1 PAM: human TRPV1 potentiation. TRPV1-expressing cells, Fluo-8 calcium influx, capsaicin EC20 potentiation; host cell line not named in the record; control for the full effect not named in the record. potentiation, % at 8.33 µM. 320,000 tested, 0.02% active. AID 540277; active means potentiation above 80%; inconclusive means 30% to 80%; inactive means below 30%; note: 0% is about no effect
# Target sequence (Q8NER1 whole entry, looked up): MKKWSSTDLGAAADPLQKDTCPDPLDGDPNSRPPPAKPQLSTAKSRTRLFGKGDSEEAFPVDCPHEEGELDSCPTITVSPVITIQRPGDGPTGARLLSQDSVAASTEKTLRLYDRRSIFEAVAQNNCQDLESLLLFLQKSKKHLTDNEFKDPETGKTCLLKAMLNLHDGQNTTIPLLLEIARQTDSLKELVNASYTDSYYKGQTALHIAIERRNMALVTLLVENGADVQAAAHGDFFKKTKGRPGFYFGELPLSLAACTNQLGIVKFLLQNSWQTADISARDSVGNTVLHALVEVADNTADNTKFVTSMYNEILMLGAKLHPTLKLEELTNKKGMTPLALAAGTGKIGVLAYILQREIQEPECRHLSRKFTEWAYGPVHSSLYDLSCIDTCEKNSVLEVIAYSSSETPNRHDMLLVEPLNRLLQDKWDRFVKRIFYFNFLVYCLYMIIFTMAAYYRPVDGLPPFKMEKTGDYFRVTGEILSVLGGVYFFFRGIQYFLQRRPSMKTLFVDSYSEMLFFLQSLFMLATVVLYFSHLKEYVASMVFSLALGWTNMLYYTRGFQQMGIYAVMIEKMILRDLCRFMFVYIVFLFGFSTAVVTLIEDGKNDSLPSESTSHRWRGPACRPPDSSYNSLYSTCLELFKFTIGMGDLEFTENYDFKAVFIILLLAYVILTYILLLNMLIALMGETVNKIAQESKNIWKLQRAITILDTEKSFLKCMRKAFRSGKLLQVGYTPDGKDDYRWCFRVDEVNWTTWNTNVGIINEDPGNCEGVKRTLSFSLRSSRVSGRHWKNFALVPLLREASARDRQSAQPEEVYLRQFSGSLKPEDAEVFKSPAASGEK
#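 TRPV1-expressing cells were cultured overnight at 35.5C and loaded with Fluo-8 calcium dye for 40 to 90 min at room temperature. After a 10 s baseline, compound was added and calcium influx was read kinetically for 3 min (ex 480/em 520 nm).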
# Sfp inh: inhibitors of Bacillus subtilis Sfp phosphopantetheinyl transferase | Biochemical Sfp PPTase activity, qHTS | Potency, µM, for the others: max response, negative = inhibition, most hits filed as inhibitors | 310,000 tested, 3.5% active; active = well fitted inhibition curve with a large enough effect; inconclusive = small, poorly fitted or top-dose-only effect, or another doubt; inactive = no such curve, though single readings can be large or run the other way;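 note: the enzyme is Sfp with the accession as filed and its product quenches rhodamine fluorescence; potency is the fitted concentration of half-maximal effect; 0% = enzyme reaction without inhibitor and -100% = no enzyme wells; top concentration of the series not given in the record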
#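 Compounds were incubated with enzyme (final 15 nM) for 15 min at room temperature before substrate addition started the reaction. Fluorescence at 525 nm excitation, 598 nm emission was recorded immediately and after 30 minutes.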
# D2 ag: activates the human D2 dopamine receptor; P14416; DiscoveRx PathHunter D2 beta-arrestin, luminescence, 90 min; 100% = 57 uM dopamine signal; activation, % (test concentration not listed); 360,000 tested, 0.084% active; AID 624465; in the data active = activation above about 40%; inconclusive = about 15% to 40%; inactive = below about 15%; note: compound concentration not given in the record; the text of the record calls up to 30% inactive
#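 Agonist mode: compounds alone added to overnight-plated D2 PathHunter cells for 90 min at 37 C, with 57 uM final dopamine (EC100) defining full response. Beta-arrestin recruitment detected by chemiluminescent reagent, read after 1 h at ambient temperature.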
# * hit, by the source's call; ? = inconclusive; · = not tested or not shown; [ ] = another dose, or the depositor's remark.
SMILES,D2 potentiator,Six1-Eya2 inh,PINK1 expr mod,CtBP-E1A blk,TRPV1 PAM,Sfp inh,D2 ag
CCCCC(=O)NC(c1ccc(Cl)cc1Cl)c1ccc2cccnc2c1O (centres undefined),0,-29,15%,?,-9,16%,2.2
CCOc1ccccc1C(c1c(O)nc(SC)[nH]c1=O)c1c(O)nc(SC)[nH]c1=O,0,-11,0.4%,-9,·,·,-4.6
O=C(CS(=O)(=O)c1ccccc1)Nc1nccs1,-4,1,-1.0%,-3,-10,-4%,-0.6
O=c1[nH]c2ccccc2n1Cc1ccccc1,-3,-8,0.0%,1,-8,-3%,-2.1
CCC(=O)N(CC(=O)Nc1sc(C)c(C)c1C(N)=O)Cc1ccc(F)cc1,-8,-2,1.2%,1,-11,4%,-2.0
CCOc1ccc(Br)cc1S(=O)(=O)Nc1ccc(C(=O)OC(C)C(=O)N(C)c2ccccc2)cc1 (centres undefined),10,4,5.1%,3,4,12%,1.9
CCCCN(C(=O)Cc1ccc(S(=O)(=O)N2CCOCC2)s1)c1c(N)n(CC(C)C)c(=O)[nH]c1=O,-5,9,-1.3%,-8,9,·,1.1
COc1ccc(NC(=S)N2CCC(NC(=O)c3cccc(F)c3)CC2)cc1,0,15,0.7%,2,-4,-3%,-4.8
O=C(NCc1ccccn1)c1cccc(NS(=O)(=O)c2ccc(Br)cc2)c1,-4,-6,-0.2%,-14,11,·,-4.9
Cc1ccc(S(=O)(=O)N2CN(CC3CCCO3)c3nc4ccccc4nc32)cc1 (centres undefined),-8,-12,0.1%,-2,-6,-1%,1.8
COc1ccc(-c2[nH][nH]c(=O)c2NC(=O)c2ccc(C)cc2)cc1,-14,2,-0.3%,5,·,·,-4.3
Nn1c(COc2ccc(Cl)cc2)nc2ccccc2c1=O,9,8,1.2%,-1,2,6%,-0.8
CCCN(CCC)CCCNC(=O)CC(C(=O)N1CCc2ccccc21)n1ccnc1 (centres undefined),2,-1,-14%[38.3 µM],4,12,12%,1.6
COc1cccc(-c2cnc(C(O)c3ccccc3OC)[nH]2)c1 (centres undefined),-8,25,1.0%,-13,·,·,-2.0
O=C(NCc1ccco1)C(=O)NCC1OCCN1S(=O)(=O)c1ccc(F)cc1 (centres undefined),-3,-6,1.6%,0,-2,19%,-0.2
COc1cc2c(cc1OC)CN(C(=O)c1cc(S(=O)(=O)N3CCOCC3)ccc1C)CC2,-7,2,0.2%,-21,-4,·,0.6
O=C(/C=C/c1ccccc1)OCN1C(=O)c2ccccc2C1=O,-2,9,1.0%,0,9,-2%,-4.8
CCOc1ccc(C2c3[nH]c4ccccc4c3CCN2C(=O)Cn2cncn2)cc1 (centres undefined),-3,-10,2.6%,-12,-9,-5%,0.4
COc1cc(NC(=O)Nc2cccc(Cl)c2)c(OC)cc1NC(=O)CN1CCCCC1,-9,?,-2.9%,-22,-9,4%,-4.2
N#Cc1ccc(OC(=O)Cc2ccsc2)cc1,-11,5,2.7%,7,2,11%,-2.3
COC(=O)c1sccc1NC(=S)N1CCCC(C)C1 (centres undefined),1,19,5.7%,6,-3,0%,-1.6
O=C(NC1CC2CCCC(C1)N2C(=O)Nc1ccccc1)C1CC1 (centres undefined),-3,15,-1.3%,8,7,21%,0.2
C=C(C)CN1C(=O)C2(OCCO2)c2cc(Br)ccc21,-6,6,-0.2%,11,·,·,3.0
Cc1cc(C)n2nc(C(=O)OCC(=O)c3cc(C)n(C)c3C)nc2n1,-14,-18,1.4%,1,10,-5%,3.5

# Single records, from the list above. Order of values: D2 potentiator | Six1-Eya2 inh | PINK1 expr mod | CtBP-E1A blk | TRPV1 PAM | Sfp inh | D2 ag
# Results for `O=C(NCc1ccco1)C(=O)NCC1OCCN1S(=O)(=O)c1ccc(F)cc1` (centres undefined) = -3 | -6 | 1.6% | 0 | -2 | 19% | -0.2
# Results for `COc1cc(NC(=O)Nc2cccc(Cl)c2)c(OC)cc1NC(=O)CN1CCCCC1` = -9 | ? | -2.9% | -22 | -9 | 4% | -4.2
# Results for `N#Cc1ccc(OC(=O)Cc2ccsc2)cc1` = -11 | 5 | 2.7% | 7 | 2 | 11% | -2.3

# Next section.
SMILES,D2 potentiator,Six1-Eya2 inh,PINK1 expr mod,CtBP-E1A blk,TRPV1 PAM,Sfp inh,D2 ag
COCCOC(=O)C1=C(C)N=C2SCCC(=O)N2C1c1ccc(OC(=O)c2ccco2)cc1 (centres undefined),-2,-4,6.7%[38.3 µM],-5,·,2%,0.4
COC(=O)C1=C(C)NC(C)=C(C(=O)OC)C1C(=O)OCc1nc2cc(C(=O)OC)ccc2c(=O)[nH]1,3,-2,-1.7%,10,13,·,1.0
O=C(Nc1ccc(F)c(Cl)c1)c1cc(C2CCCN(S(=O)(=O)c3cccs3)C2)on1 (centres undefined),-8,-1,0.6%,-19,·,·,9.9
Cc1cccc(OCc2nnc(-c3ccc(F)cc3)o2)c1,1,11,2.0%,19,-1,·,4.7
CCc1ccccc1N1CCN(S(=O)(=O)c2cc(OC)ccc2OC)CC1,-14,-1,6.4%[38.3 µM],0,-10,-13%,5.3
CN(C)CCNC(=O)c1ccc(-c2cnn(C)c2)c2ccoc12,-19,0,0.8%,3,·,·,-4.0
Nc1ncnc2nc(SCCN3CCCCC3)[nH]c12,-21,2,1.1%[38.3 µM],7,-14,0%,-2.8
COCC#Cc1cnc2c(c1)C(=O)N([C@H](C)CO)C[C@H](C)[C@@H](CN(C)S(=O)(=O)c1ccccc1)O2,3,2,0.7%,2,·,·,-5.1
CCOc1ccc(C(OC(=O)c2ccco2)C(=O)NCc2ccc(C)cc2)cc1 (centres undefined),-13,-4,1.1%,-6,13,0%,-4.8
O=C(Nn1c(O)c(C=C2N=c3ccccc3=N2)sc1=S)c1ccc(Cl)cc1,-7,-1,21%[38.3 µM],-1,-19,?,-0.9
CCOc1cc(/C=C2\N=C(C)OC2=O)cc(Br)c1OCCc1ccccc1,-15,1,2.5%[38.3 µM],-2,10,-2%,-1.5
CC1=C(C(=O)N(C)CCC#N)C2(CCCCC2)OC1=O,-5,1,-1.2%,2,1,-3%,-2.7

# Brought forward from above: two compounds; new compounds follow.
SMILES,D2 potentiator,Six1-Eya2 inh,PINK1 expr mod,CtBP-E1A blk,TRPV1 PAM,Sfp inh,D2 ag
CCOc1cc(/C=C2\N=C(C)OC2=O)cc(Br)c1OCCc1ccccc1,-15,1,2.5%[38.3 µM],-2,10,-2%,-1.5
CC1=C(C(=O)N(C)CCC#N)C2(CCCCC2)OC1=O,-5,1,-1.2%,2,1,-3%,-2.7
O=C(CCCN1C(=O)/C(=C\c2cccs2)SC1=S)Nc1ccccc1O,-5,-11,2.0%,-4,·,·,-4.6
O=C(CCCc1nc(-c2ccc(Cl)cc2)no1)N1CCOCC1,1,3,4.9%[38.3 µM],6,-27,-9%,-1.4
COc1cc(/C=C/C(=O)O)cc(OC)c1O,2,0,1.5%,1,·,·,-0.3
Fc1c(F)c(C(F)(F)F)c(F)c(F)c1N1CCN(c2ccc3nnc(C(F)(F)F)n3n2)CC1,8,6,1.7%,8,1,-28%,1.1
O=C(CC1C(=O)NCCN1C(=O)Nc1ccc(Cl)cc1)Nc1ccc(F)cc1 (centres undefined),-6,-3,6.3%,-4,0,18%,-0.5
O=C(c1cc2n(n1)C(C(F)(F)F)CC(c1ccc(F)cc1)N2)N1CCCC1 (centres undefined),5,-1,·,8,·,1%,-2.9
N=C1C(c2nc3ccccc3s2)=C(O)CN1C1CCC(O)CC1 (centres undefined),-3,2,-0.1%,-4,7,2%,-3.3
COC(=O)c1cc(OC)c(OC)c(OC)c1NC(=O)c1ccc(S(=O)(=O)N(C)C)cc1,-4,1,2.5%[38.3 µM],2,1,6%,-1.9
COc1ccc(S(=O)(=O)N(CC(=O)NCC2CCCO2)C2CCCCC2)cc1OC (centres undefined),8,16,1.1%,3,0,32%[activator],-1.5
CCn1c(SCC(=O)N2CCOCC2)nc2c(c1=O)SC(C)C2 (centres undefined),-8,-6,-0.9%,5,-2,12%,-0.8
COc1cccc(NC(=O)c2ccc3c(c2)N(C)CCS3)c1,-12,-2,-0.2%,-3,-8,-3%,-2.5
COc1ccccc1N1C(=O)[C@@H]2C(C(=O)CN3C(=O)c4ccccc4C3=O)=NN[C@@H]2C1=O,5,1,-1.4%,4,4,13%,4.4
CCCCn1c(SCC(=O)NC2CCCC2)nnc1-c1ccco1,-3,3,0.6%,0,2,17%,-2.7
O=c1nccc(N/N=C/c2ccccc2O)[nH]1,-15,-75*,-0.4%,-92*,-9,10%,-19
CN(C)CCN(C(=O)c1ccc(S(=O)(=O)N(C)c2ccccc2)cc1)c1nc2cc3c(cc2s1)OCO3,-16,-14,-0.7%,-8,5,-14%,-2.7
C=CCOc1ccc(C2C(C(=O)c3ccco3)=C(O)C(=O)N2CCCN(CC)CC)cc1 (centres undefined),-1,2,-0.2%,6,13,9%,-5.1
O=C(NN=Cc1ccccc1C(=O)O)c1cccc(S(=O)(=O)Nc2cccc(C(F)(F)F)c2)c1,-2,0,1.7%,-10,·,·,-1.5
CCOc1ccc(NC(=O)c2ccc3c(c2)N(Cc2ccc(F)cc2)C(=O)CS3=O)cc1 (centres undefined),2,-8,1.6%,1,-3,15%,-1.8
O=C(NCCCN1CCOCC1)c1ccco1,0,-2,1.3%,0,5,13%,-1.0
COc1cc(-c2n[nH]c(=S)n2-c2ccccc2C(F)(F)F)cc(OC)c1OC,-16,-11,1.0%,-20,?,-18%,-2.0
CCOC(=O)CCCCCC(=O)Nc1ccc2c(c1)C(=O)N([C@@H](C)CO)C[C@H](C)[C@H](CN(C)S(=O)(=O)c1ccc(OC)cc1)OCCCC[C@H](C)O2,-4,-9,0.1%,3,·,·,-1.9
CCCC(=O)Nc1ccccc1NC(=O)c1ccc(OC(C)=O)cc1,0,-3,1.9%,0,3,18%,-4.8
COc1cccc(C(=O)Nc2cc3c(cc2Cl)OCCCO3)c1,-14,13,1.1%,2,-14,0%,-0.6
COc1cc(C(=O)NNC(=S)NC(=O)/C=C/c2ccccc2)cc(OC)c1OC,-4,-21,0.8%,-23,·,14%,0.1
Cc1ccc(-c2ccc(/C=N/NC(N)=S)o2)cc1,-11,-2,-0.1%,-9,11,20µM*,0.9
COC(=O)Cc1ccc(NC(=S)N2CCC(Cc3ccccc3)CC2)cc1,-26,-17,-0.1%,-5,-9,11%,1.4
COc1cccc(COC(=O)C2CC(=O)N(Cc3ccc(C)cc3)C2)c1OC (centres undefined),-2,0,2.7%,5,-10,·,-0.6
COc1cc(/C=C2/C(=N)N3C=CSC3=NC2=O)ccc1OCCCOc1ccccc1C,-7,-3,4.4%[38.3 µM],-8,-2,-18%,3.8
Cc1c(C(=O)N(C)c2ccccc2)oc2c1C(O)CC(C)(C)C2 (centres undefined),-2,-2,1.0%,·,-8,22%,-0.2
